# Vaccinia mCherry: vaccinia inhibition (mCherry reporter); Vaccinia virus mCherry reporter infection, fluorescence; about a quarter of the inactives have no number; AID 720579; Potency, µM (doses to about 36.5 µM), for the others: at the highest dose activity change, negative = inhibition, actives largely listed as inhibitors; hit rate 0.63% among 310,000; active = well fitted inhibition curve with a large enough effect; inconclusive = small, poorly fitted or top-dose-only effect; inactive = no such curve, though single readings can be large or run the other way; tested in A549 cells; also: nearly all actives have a fitted effect of over 35% in size; inactives centre near -10
# VACV Venus inh: vaccinia inhibition (Venus reporter); Vaccinia virus Venus reporter expression, fluorescence; Potency, µM (doses to about 36.5 µM), without a hit: at the top dose activity change, negative = inhibition, most hits filed as inhibitors; hit rate 0.46% among 330,000; active means well fitted inhibition curve with a large enough effect; inconclusive means small, poorly fitted or top-dose-only effect; inactive means no such curve, though single readings can be large or run the other way; tested in A549 cells; also: nearly all actives have a fitted effect of over 30% in size; inactives centre near -10
# The depositor's hits bear a star; i = inactive; u = inconclusive; x = not tested or not shown; [ ] = another dose, or the depositor's remark. % is scaled to controls: 0 for no effect and ±100 for the full control effect; potency is read from the fitted curve at half-maximal effect. An unsorted share of the library; about 0.82% have a hit in one of these screens.
SMILES,Vaccinia mCherry,VACV Venus inh
Cn1c(N)c(C#N)c2c(c1=S)COC(C)(C)C2,i,-16%
O=C(COc1ccc(/C=N/NC(=O)c2ccccc2O)cc1)Nc1ccccc1,i,-20%
CCOc1cc2c(cc1OCC)C(c1ccc(OC)cc1)N(c1ccccc1)C(=O)C2 (stereo unspecified),-15%,-11%
Cc1occc1C(=O)NNC(=O)COc1ccc(Br)cc1Br,i,-2%
CNC(=S)Nc1ccc(Br)cc1,i,-10%
O=C(Cn1c2c(c(-c3ccccc3Cl)cc1=O)CCC2)NCC1CCCO1 (stereo unspecified),1%,-9%
Nc1nc(COc2ccccc2C=O)nc(Nc2ccccc2)n1,i,-5%
CC1CCN(CCCCOc2ccc(Br)cc2)CC1,-21%,-11%
COc1cn(CC(=O)Nc2cc(C)cc(C)c2)c(CN2CCCCC2)cc1=O,i,-10%
CCn1c(=NC(=O)CSCC(=O)Nc2nccs2)sc2ccccc21,x,-5%
CC(=O)Nc1ccc(NC(=O)COC(=O)c2ccc(S(=O)(=O)NCc3ccco3)cc2)cc1,-20%,0%
Cc1cccc(CNC(=O)C2CCC(=O)N(CC3CCCCC3)C2)c1 (stereo unspecified),i,-10%
Cc1cccc(C(=O)NC(NC(=S)Nc2ccc(S(N)(=O)=O)cc2)C(Cl)(Cl)Cl)c1 (stereo unspecified),-12%,-13%
COC(=O)C1=C(C(=O)OC)[C@@H]2N(C)c3ccc(OC)cc3[C@@]23C[C@@H](C(=O)OC)N(S(=O)(=O)c2ccc([N+](=O)[O-])cc2)C3=N1,u,u
CCn1c(NCc2cc(OC)c(OC)c(OC)c2)nc2ccccc21,u,-12%
COc1ccc2c(c1)nc(N)n2Cc1ccccc1,-6%,-16%
CC(=O)Nc1ccc(S(=O)(=O)Nn2cnnc2)cc1,-3%,-5%
CN(CC(=O)Nc1cccc(F)c1)C(=O)c1ccc(COc2ccccc2)o1,-16%,2%
CCCC(C(=O)c1ccccc1)n1cncn1 (stereo unspecified),-12%,-7%
O=C(O)C1CCC(CNS(=O)(=O)c2ccc(Cl)cc2)CC1 (stereo unspecified),-5%,-5%

# Single records (already shown). Order of screens: Vaccinia mCherry | VACV Venus inh
# Listed for `CC(=O)Nc1ccc(S(=O)(=O)Nn2cnnc2)cc1` = -3% | -5%
# Listed for `COc1ccc2c(c1)nc(N)n2Cc1ccccc1` = -6% | -16%
# Listed for `CCn1c(NCc2cc(OC)c(OC)c(OC)c2)nc2ccccc21` = u | -12%

# Additional results follow:
SMILES,Vaccinia mCherry,VACV Venus inh
Cc1c(Br)cnn1C(C)C(=O)N1CCN(c2ccc(F)cc2)CC1 (stereo unspecified),-1%,-11%
CSc1ccccc1NC(=O)CSCc1ccc(C)cc1,-28%,-17%
COc1cccc(Nc2nc(N)c([N+](=O)[O-])c(NCc3ccco3)n2)c1,i,-17%
Cc1ccc(C(=O)N2CCCCCC2)cc1Br,-7%,-6%
C=CCN(C(=O)c1csnn1)C(C(=O)NCc1ccccc1)c1cccs1 (stereo unspecified),-2%,-15%
COc1cccc(C(=O)N/N=c2\oc3c(OC)cccc3cc2C(=O)NCc2ccccc2)c1,i,-14%
COc1ccc2nc(NC(=O)c3nc(S(=O)(=O)Cc4ccccc4)ncc3Cl)sc2c1,-20%,-15%
O=C(c1coc(=O)c(Br)c1)N1CCC(C(O)(c2ccccc2)c2ccccc2)CC1,-3%,-21%
O=c1c2ccccc2c(/C=N/n2cnnc2)c(O)n1-c1ccccc1F,-20%,-2%
O=C(O)COCC(=O)Nc1ccc(Oc2ncnc3cc(Cl)ccc23)nc1,i,9%
CN(C)S(=O)(=O)N1CCN(c2ccccc2)CC1,-3%,-4%
CC(C)(C)OC(=O)NCCc1n[nH]c(=S)o1,-5%,-6%
COc1ccc(-c2ccc3c(c2)S(=O)(=O)c2cccc(C(=O)NCCOc4ccccc4)c2C3=O)cc1OC,i,-23%
CN(C(=O)c1ccco1)c1nnc(-c2ccc(F)cc2)s1,1%,-8%
Cc1ccc(S(=O)(=O)c2c(C)nn(C(C)(C)C)c2OC(=O)C2CCCC2)cc1,x,u
Cc1ccccc1-n1c(=O)cc(N2CCN(Cc3ccccc3)CC2)[nH]c1=O,i,3%
O=C(NCc1ccccc1Cl)c1ccc2c(O)c(S(=O)(=O)c3ccccc3)c(=O)[nH]c2c1,-8%,-8%
CCC(=O)NC(=S)Nc1ccc(Cl)cn1,x,-11%
CCc1ccc(NC(=S)NC(=O)c2c(-c3ccccc3Cl)noc2C)cc1,-26%[7.34 µM],4%[7.34 µM]
CCOC(=O)C1CCCN(c2c(NCC3CCCO3)c(=O)c2=O)C1 (stereo unspecified),i,-22%
COC(=O)c1ccc(NC(=O)CSc2cn(CC(=O)N3CCCCCC3)c3ccccc23)cc1,-10%,-8%
COc1ccc(-c2nncnn2)cc1,i,-11%
Cc1nc(N2CCCC2)c2c(C(=O)N3CCN(c4cccc(C)c4C)CC3)c(C)oc2n1,-5%,-21%
O=C(Nc1ccccc1)N1CCCc2ccccc21,x,-4%
Cn1nc(-c2ccc(Cl)cc2)c2cc(C(=O)N3CCOCC3)sc21,i,-10%
CCC1=NN(C(=O)C(=O)Nc2ccccc2OC)C(O)(C(F)(F)F)C1 (stereo unspecified),i,-15%
O=C(O)C1OC(Oc2cc3oc(-c4ccccc4)cc(=O)c3c(O)c2O)C(O)C(O)C1O (stereo unspecified),-14%,-4%
Cn1cnc2c(=O)oc3ccc(S(=O)(=O)N4CCN(c5ccccc5)CC4)cc3c21,-14%,-1%
CC(C)(C)C1CCc2c(sc(NC(=O)c3cccc(Cl)c3)c2C(=O)NCc2ccco2)C1 (stereo unspecified),-21%,-15%
COc1cccc(-n2nnc3c(=O)n(CC(=O)N4CCC(C)CC4)cnc32)c1,2%,10%
Cc1ccc(Sc2ccc(CO)cc2[N+](=O)[O-])cc1,-19%,-11%
CCO[C@H]1OC(C(=O)NCc2nc3ccccc3[nH]2)=C[C@@H](c2ccccc2)[C@@H]1CCCO,12%,0%
O=[N+]([O-])c1ccc2c(c1)nnn2-c1ccccc1,-13%,-14%
O=c1[nH]c(=O)n(CCC2=CCCCC2)c(O)c1/C=N/Nc1cccc2ccccc12,u,7%
CN(Cc1cn(Cc2cccc(C(F)(F)F)c2)nn1)C1CN(Cc2cn(Cc3cccc(C(F)(F)F)c3)nn2)S(=O)(=O)C1 (stereo unspecified),i,-12%
CCCC(=O)N1c2ccccc2C(N(C(C)=O)c2ccccc2)CC1C (stereo unspecified),x,-1%
Cc1cccc(S(=O)(=O)NC(=O)C2(C)CCN2C(=O)Cc2cc(F)ccc2F)c1 (stereo unspecified),i,-17%
O=C1CSC(=S)N1CC1CCCO1 (stereo unspecified),5%,43%[activator]
CC(C)COc1ccc(C(=O)OCC(=O)N(C)CC(=O)Nc2ccc(F)cc2)cc1,-18%,u
CCCCN(CCCC)CCNC(=O)Cn1nc(CC)n2c(cc3sc(C)cc32)c1=O,-24%,-21%
C=CCNc1ncnc2c1ncn2[C@H]1CN(Cc2cccs2)C[C@@H](CO)O1,-4%,5%
Cc1ccc(N(C)C(=O)N2CCN(S(=O)(=O)c3ccc4ccccc4c3)CC2)cc1,u,-14%
O=C(COC(=O)/C=C/c1ccc2ccccc2n1)NNC(=O)c1ccc([N+](=O)[O-])cc1,-2%,-8%
CCN(CC)S(=O)(=O)c1cccc(C(=O)Nc2ccc(S(=O)(=O)NC3=NCCCCC3)cc2)c1,-13%,-24%
Cc1ccc(Cl)cc1N1CCN(C(=O)Cc2cn(C)c3ccccc23)CC1,u,u
CSc1nc(N)c(NC(=O)c2ccc(Br)o2)c(=O)[nH]1,-6%,-9%
O=C(CN(c1ccc(Cl)c(C(F)(F)F)c1)S(=O)(=O)c1ccccc1)N1CCOCC1,x,-23%
Cc1ccc(N2C(=O)NC(NS(=O)(=O)c3ccccc3)(C(F)(F)F)C2=O)cc1 (stereo unspecified),-5%,6%
O=C(c1ccc(NC(=O)C(c2ccccc2)c2ccccc2)cc1)c1ccc(C(=O)O)c(C(=O)O)c1,-24%,1%
COc1ccc(NC(=S)N(CCc2c(C)[nH]c3ccc(C)cc23)Cc2ccco2)cc1,-28%,u
# (list continues)
SMILES,Vaccinia mCherry,VACV Venus inh
O=C(c1cccc(Cl)c1)N1CCC(=O)N([C@H](COCc2ccccc2)Cc2ccccc2)CC1,1%,-6%
Cc1ccc(NC(=O)c2cc3cc(C)ccc3n2C)cc1,2%,-6%
COc1ccc(-n2nc(C(=O)Nc3ccccn3)c3c4ccccc4n(C)c3c2=O)cc1,-6%,-1%
O=C(O)c1cccc(-c2nnn(Cc3ccccc3)n2)c1,-10%,-8%
CCOC12CC(C)(C)CC(C)(CC3=C1C(=O)CC(C)(C)C3)C2 (stereo unspecified),i,-5%
COc1ccc(CNC(=S)Nc2cccc(OC)c2)cc1,-22%,-3%
O=C(Cc1cn(-c2ccccc2)nc1-c1ccccc1)N1CCCCC1,-18%,3%
COc1cccc(CNC(=O)COc2cc(O)c3c(c2)OC(C)(C)CC3=O)c1,-10%,-9%
CCOCCn1c(CN2CCN(CCO)CC2)nc2c1c(=O)n(C)c(=O)n2C,-3%,5%
COc1cc(C)c(S(=O)(=O)n2c([N+](=O)[O-])cnc2C)cc1C,-8%,-9%
Cc1c(Br)c([N+](=O)[O-])nn1C(C)C(=O)NCc1cccs1 (stereo unspecified),-6%,-16%
COCCC(=O)NCC1Cc2cc(Cl)cc(-c3ccc4[nH]ccc4c3)c2O1 (stereo unspecified),-9%,-4%
Cc1cccc(Nc2nnc(SCC(=O)NCC3CCCO3)s2)c1 (stereo unspecified),i,-3%
COc1ccc(CCSc2nnc(C3CCCCC3)n2N)cc1,x,-21%
COc1cccc(C(=O)NNC(=S)NC2CCCCC2)c1,i,-13%
O=C(CSCc1cnn(-c2ccccc2)c1-n1cccc1)NCc1cccnc1,i,-19%
Cn1c(=O)[nH]c(=O)c2c1nc(NC1CCCCC1)n2Cc1ccccc1,x,8%
C[C@H](CO)N1C[C@H](C)[C@@H](CN(C)C(=O)Nc2ccccc2)Oc2c(NC(=O)C3CCCCC3)cccc2C1=O,i,-10%
COCc1ccc(CN2CCC(C(=O)Nc3cccc(-c4cccc(Cl)c4)c3)CC2)o1,u,u
COc1ccc(CC(=O)NCc2ccc3c(c2)cc(C)n3C)cc1OC,i,-11%
O=C(CCCn1ncn2c(cc3occc32)c1=O)NCc1ccccc1F,-13%,-5%
CCOc1cc(N2CCOCC2)c(OCC)cc1NC(=O)c1cc(C)cc(C)c1,-4%,-5%
CCOC(=O)C1SC2(C(F)(F)C(F)F)CC1(O)c1c(c(OC)c3occc3c1OC)O2 (stereo unspecified),-20%,-18%
CCn1c(CNc2ccc(F)cc2)nnc1SCC(=O)N1CCCc2ccccc21,u,-23%
O=C(NCc1cccc(C(F)(F)F)c1)c1ccc2sc(COCCO)nc2c1,21%,-2%
CC(=O)Nc1ccc(S(=O)(=O)Nc2cc(C)cn(Cc3ccc(C)cc3)c2=O)cc1,-4%,-14%
Cc1cc(-c2ccccc2C(=O)Nc2ccccc2O)on1,i,-12%
CCn1nc2cc(C(=O)NCc3cc(C(F)(F)F)cc(C(F)(F)F)c3)ccc2c1OC,i,-18%
c1ccc(-c2nccc(-c3ccc4c(c3)OCO4)n2)cc1,-17%,-18%
CCOC(=O)[C@]12CCC=C1N(Cc1cccc3ccccc13)C(=O)[C@H](CC(=O)NCCCOC)C2,-5%,8%

# Shown bar-delimited: entries from further up
SMILES | Vaccinia mCherry | VACV Venus inh
CCC1=NN(C(=O)C(=O)Nc2ccccc2OC)C(O)(C(F)(F)F)C1 (stereo unspecified) | i | -15%
CC(=O)Nc1ccc(S(=O)(=O)Nc2cc(C)cn(Cc3ccc(C)cc3)c2=O)cc1 | -4% | -14%
CN(C)S(=O)(=O)N1CCN(c2ccccc2)CC1 | -3% | -4%
COCc1ccc(CN2CCC(C(=O)Nc3cccc(-c4cccc(Cl)c4)c3)CC2)o1 | u | u
c1ccc(-c2nccc(-c3ccc4c(c3)OCO4)n2)cc1 | -17% | -18%

# Other structures follow.
SMILES,Vaccinia mCherry,VACV Venus inh
O=c1c2cc(NC(=S)N3CCC(N4CCCCC4)CC3)ccc2nc2n1CCCCC2,i,-1%
CCNC(=O)C1(C)CCN1C(=O)CCc1cccc(Cl)c1 (stereo unspecified),i,-12%
Cc1cn([C@H]2C[C@H](O)[C@@H](CNCc3cc(Br)ccc3OCc3ccccc3)O2)c(=O)[nH]c1=O,-29%,-12%
O=C(c1ccccc1)C(CCC(CN1CCOCC1)C(=O)c1ccccc1)CN1CCOCC1 (stereo unspecified),x,7.9µM*
CC(C)(C)n1nnnc1C(c1ccc2ncccc2c1)N1CCC(O)CC1 (stereo unspecified),-9%,-6%
CCN(CC)CCCNC(=O)CN1N=C(c2ccccc2)CCC1=O,3%,-6%
CN(CCO)C(=O)c1cn(C2CCCN(Cc3ccc(C(F)(F)F)cc3)C2)nn1 (stereo unspecified),-8%,-2%
Cc1ccccc1N1CCN(C2CCCN(C(=O)Cc3c(C)noc3C)C2)CC1 (stereo unspecified),-19%,-7%
COc1ccc(/C=C2\SC(N3CCc4ccccc4C3)=NC2=O)cc1OC,-16%,-5%

# Compound activity: PubChem BioAssay, National Center for Advancing Translational Sciences (NCATS)
